# DUX4 txn inh: inhibitors of DUX4-driven ZSCAN4 reporter expression, primary screen, 293T cells, Gaussia and Italica luciferase | 293T-iDUX4 ZSCAN4-Gaussia luciferase reporter, 24 h; hits give low values | activity change, negative = inhibition, % (test concentration not listed) | actives 0.8% (n = 37,000) | AID 1224904, 2016;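 active = -10% or lower and over 25 points stronger than a control reporter; inconclusive = -10% or lower with a smaller gap; inactive = above -10%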;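 also: 0% = median of neutral control wells and -100% = median of positive control wells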
# DUX4 txn inh difference: recorded beside DUX4 txn inh, whose call it bears; Gaussia minus Italica difference, %; measured here: selective DUX4 reporter inhibition;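 worked out from the two reporters; negative = selective loss of the DUX4 reporter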
# DUX4 txn inh control: also measured in DUX4 txn inh; calls as there; activity change, negative = inhibition, %; measured here: Italica tet-on control reporter;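 0 = neutral control and -100 = positive control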
# Starred values were filed as active, the others as inactive; ? = inconclusive; . = not tested or not shown; & = joins results of further samples. These rows are one share of the data; count on the stated rates, not on these rows.
cpd	canonical_smiles	DUX4 txn inh	DUX4 txn inh control	DUX4 txn inh difference
1	CCCC(=O)Nc1ccc2c(c1)C(=O)N(C)C[C@@H](OC)[C@@H](C)CN(Cc1ccc(F)cc1)[C@@H](C)CO2	-5.8	-3.0	-2.8
2	COc1ccc2c3c([nH]c2c1)[C@@H](CO)N(C(C)=O)CC31CN(C(=O)c2ccc3c(c2)OCO3)C1	-1.7	2.2	-3.9
3	COCC(=O)N1CC(=O)N2[C@H](C1)[C@H](c1ccc(C#Cc3cccnc3)cc1)[C@@H]2CO	10.1	21.0	-10.9
4	CCCC#Cc1ccc([C@@H]2[C@@H](C#N)N(S(C)(=O)=O)[C@H]2CO)cc1	-3.3	0.7	-4.0
5	CCCC(=O)N1CCC2(CC1)CN[C@@H](CO)c1c2c2ccc(OC)cc2n1C	6.4	2.8	3.6
6	CS(=O)(=O)Nc1ccc2c(c1)[C@H]1C[C@H](CC(=O)N3CCc4ccccc4C3)O[C@H](CO)[C@H]1O2	5.8	-1.6	7.4
7	COc1ccc2c3c([nH]c2c1)[C@H](CO)N(Cc1nccs1)CC31CCN(Cc2cccnc2)CC1	1.4	2.5	-1.0
8	COc1ccccc1C#Cc1ccc2c(c1)O[C@H](CN(C)Cc1ccncc1)[C@@H](C)CN([C@@H](C)CO)S2(=O)=O	-3.8	1.6	-5.4
9	COCC(=O)N1C[C@@H](C)[C@H](OC)CN(C)C(=O)c2cc(NC(=O)c3ccc(OC)cc3)ccc2OC[C@H]1C	3.2	2.6	0.7
10	N#C[C@H]1[C@@H](c2ccccc2C2=CCCCC2)[C@@H](CO)N1C(=O)CN1CCOCC1	25.7	18.9	6.8
11	COCC(=O)N(C)C[C@H]1[C@H](c2ccc(-c3ccccc3)cc2)[C@H](CO)N1C(C)=O	1.9	0.1	1.8
12	O=C(C1CCOCC1)N1CC(=O)N2[C@H](CO)[C@@H](c3ccc(C#CCc4ccccc4)cc3)[C@H]2C1	7.1	5.7	1.4
13	CCC(=O)N1CC(=O)N2[C@@H](CO)[C@H](c3ccc(-c4cccnc4)cc3)[C@@H]2C1	9.3	3.1	6.2
14	CN(C)C(=O)c1cccc(-c2ccc([C@@H]3[C@@H](CO)N(C(=O)C4CC4)[C@H]3C#N)cc2)c1	1.2	-16.5	17.7
15	O=C(Nc1ccc(C(F)(F)F)cc1)N1[C@@H]2CNC[C@H]1C2c1ccc(-c2ccncc2)cc1 (some centres not stated)	9.5&9.3	21.1&2.2	-11.6&7.1
16	O=C(c1ccccn1)N1CC(=O)N2[C@@H](CO)[C@H](c3ccc(C#Cc4ccccc4)cc3)[C@@H]2C1	0.9	1.1	-0.2
17	COc1cccc(-c2ccc3c(c2)[C@H]2[C@H](CCN2S(=O)(=O)c2ccccc2F)[C@H](CO)N3)c1	?	.	.
18	COCC(=O)N1CC[C@@H]2[C@H]1c1cc(-c3ccc(OC)cc3)ccc1N(C)[C@H]2CO	3.4	2.4	1.0
19	COc1cccc(-c2cccc(-c3nc(C(=O)N4CCN(C)CC4)cc4c3[C@@H](CCO)N(S(=O)C(C)(C)C)C4)c2)c1 (some centres not stated)	-1.5	0.2	-1.7
20	CO[C@@H]1CC[C@H]2CCN(C)C(=O)[C@H](C)[C@H](OC)CN(C)C(=O)c3cc(C#N)ccc3OC[C@@H]1O2	-3.3	-5.1	1.8
21	CC(=O)N1CC2(C1)[C@H](c1ccccc1)[C@H](CO)N2CC1CCOCC1	3.4	0.1	3.3
22	O=C(NC[C@H]1[C@H](c2ccccc2)[C@@H](CO)N1C(=O)C1CC1)NC1CCCC1	-5.0	2.2	-7.2
23	C[C@@H]1CN([C@H](C)CO)C(=O)CCCn2nncc2CO[C@H]1CN(C)S(C)(=O)=O	2.8	1.4	1.4
24	C[C@H](CO)N1C[C@H](C)[C@H](CN(C)C(=O)C2CC2)OCc2ccccc2-c2c(n(C)c3ccccc23)C1=O	-2.6	-5.2	2.6
25	CCCC(=O)N1CCC2(CC1)CN(S(=O)(=O)c1ccc(C)cc1)[C@@H](CO)c1[nH]c3cc(OC)ccc3c12	-6.5	-7.6	1.1
26	CN1C(=O)c2cc(NC(=O)c3cscn3)ccc2OC[C@@H]2O[C@@H](CC(=O)N3CCOCC3)CC[C@H]21	4.2	1.7	2.6
27	CC(C)NC(=O)N1[C@H](CO)[C@H](c2ccc(C#CC3CC3)cc2)[C@@H]1C#N	5.8	-20.9	26.7
28	C[C@@H]1CCCCO[C@H](CN(C)Cc2ccncc2)[C@H](C)CN([C@@H](C)CO)C(=O)c2cc(NS(=O)(=O)c3ccc(Cl)cc3)ccc2O1	1.3	2.1	-0.8
29	CO[C@H]1CN(C)C(=O)c2cc(NS(=O)(=O)c3ccccc3F)ccc2OC[C@@H](C)NC[C@H]1C	1.5	5.1	-3.6
30	O=C(N[C@H]1CC[C@@H](CC(=O)N2CCOCC2)O[C@@H]1CO)c1cccc(F)c1	2.1	0.0	2.0

# (list continues)
cpd	canonical_smiles	DUX4 txn inh	DUX4 txn inh control	DUX4 txn inh difference
31	C[C@@H]1CN([C@H](C)CO)C(=O)c2cc(NC(=O)NC3CCCCC3)ccc2O[C@@H]1CN(C)S(C)(=O)=O	3.2	1.1	2.1
32	CN(C)CC#Cc1ccc([C@@H]2[C@H]3CN(C(=O)C4CCC4)CCCCN3[C@H]2CO)cc1	5.7	3.9	1.8
33	O=C(Nc1cccc(F)c1)N1CC(=O)N2[C@H](CO)[C@@H](c3ccc(C#CCC4CCCC4)cc3)[C@@H]2C1	-1.8	2.3	-4.1
34	O=C(C[C@H]1CC[C@@H]2[C@H](COC[C@H](O)CN2C(=O)Nc2ccc(Cl)c(Cl)c2)O1)NCc1ccc(Cl)c(Cl)c1	?	.	.
35	CCS(=O)(=O)N1CC2(C1)[C@H](c1ccccc1)[C@@H](CO)N2C(=O)C1CCCC1	6.7	0.3	6.4
36	CCCC#Cc1ccc([C@@H]2[C@@H](CO)N3C(=O)CN(C(=O)c4ccc(F)cc4)C[C@H]23)cc1	9.9	-4.7	14.6
37	COC(=O)C[C@@H]1C[C@H]2c3cc(N(C)C)ccc3O[C@H]2[C@@H](CO)O1	5.6	4.5	1.1
38	C[C@@H]1CN([C@@H](C)CO)C(=O)CCCn2cc(nn2)CO[C@H]1CN(C)C(=O)C1CC1	3.6	1.3	2.3
39	COCCNC(=O)C[C@@H]1CC[C@@H]2[C@@H](COc3ccc(NC(=O)c4cc(C)on4)cc3C(=O)N2C)O1	-1.8	-3.4	1.6
40	CC(C)(O)C#Cc1ccc([C@H]2[C@@H](CO)N3CCCCN(C(=O)c4ccncc4)C[C@@H]23)cc1	-1.2	14.0	-15.3
41	CN1C(=O)c2cc(NC(=O)c3ccc(Cl)cc3)ccc2OC[C@H]2O[C@@H](CC(=O)NCc3cccc(F)c3)CC[C@H]21	0.7	1.4	-0.7
42	COc1ccc(C#Cc2ccc([C@H]3[C@@H](CO)N4CCCCN(C(=O)Nc5cccc(F)c5)C[C@H]34)cc2)cc1	?	.	.
43	CCCNC(=O)C[C@H]1CC[C@H]2[C@@H](COC[C@H](O)CN2CC2CCCCC2)O1	3.8	4.1	-0.3
44	CC(C)C#Cc1ccc2c(c1)O[C@H](CN(C)C(=O)c1ccncc1)[C@H](C)CN([C@@H](C)CO)S2(=O)=O	-3.2	2.6	-5.8
45	C[C@@H]1CCCCO[C@H](CN(C)C(=O)Nc2ccc(C(F)(F)F)cc2)[C@@H](C)CN([C@@H](C)CO)C(=O)c2cc(NS(=O)(=O)c3ccc(Cl)cc3)ccc2O1	-2.1	7.6	-9.6
46	Cc1ccccc1CN(C)C[C@H]1OCc2cn(nn2)CCCC(=O)N([C@H](C)CO)C[C@@H]1C	3.0	7.2	-4.2
47	COc1ccc2c3c([nH]c2c1)[C@H](CO)N(C(=O)NC(C)C)CC31CN(Cc2ccc(F)cc2)C1	?	.	.
48	Cc1ccc(S(=O)(=O)Nc2ccc3c(c2)C(=O)N([C@@H](C)CO)C[C@H](C)[C@H](CN(C)Cc2ccc4c(c2)OCO4)OCCCC[C@@H](C)O3)cc1	-1.5	-0.4	-1.1
49	O=C(C[C@@H]1C=C[C@@H](NC(=O)C2CCC2)[C@@H](CO)O1)NC1CCCCC1	-0.8	0.7	-1.5
50	O=C(c1ccncc1)N1CC(=O)N2[C@H](CO)[C@H](c3ccc(-c4ccccc4F)cc3)[C@@H]2C1	5.1	5.9	-0.8
51	C/C=C/c1ccc([C@@H]2[C@H](CO)N3CCCCN(S(=O)(=O)c4ccc(F)cc4)C[C@@H]23)cc1	?	.	.
52	C[C@H]1CN([C@@H](C)CO)C(=O)CCCn2nncc2CO[C@@H]1CN(C)C(=O)Nc1ccccc1	-0.1	4.3	-4.4
53	CN1C(=O)c2cc(NC(=O)C3CCOCC3)ccc2OC[C@@H]2O[C@@H](CC(=O)NCc3ccc4c(c3)OCO4)CC[C@H]21	2.7	0.7	2.0
54	COCCNC(=O)C[C@@H]1C[C@H]2c3cc(N(C)C)ccc3O[C@H]2[C@H](CO)O1	5.1	-0.3	5.3
55	CCOC(=O)N(C)C[C@@H]1OCc2ccccc2-c2ccccc2C(=O)N([C@H](C)CO)C[C@@H]1C	17.0	7.1	9.9
56	COc1ccc2c3c(n(C)c2c1)[C@@H](CO)N(C(=O)c1ccncc1)CC31CCN(S(C)(=O)=O)CC1	17.3	4.1	13.2
57	CO[C@H]1CN(C)C(=O)c2cc(NC(=O)CC(F)(F)F)ccc2OC[C@H](C)N(S(=O)(=O)c2cn(C)cn2)C[C@@H]1C	3.9	5.4	-1.5
58	CCC(=O)Nc1ccc2c(c1)C(=O)N(C)C[C@@H](OC)[C@H](C)CN(C(=O)Cc1cccnc1)[C@H](C)CO2	6.5	3.4	3.1
59	C[C@@H]1CCCCO[C@@H](CN(C)C(=O)NC2CCCCC2)[C@@H](C)CN([C@H](C)CO)C(=O)c2cc(N(C)C)ccc2O1	3.6	3.3	0.3
60	CO[C@@H]1CN(C)C(=O)c2ccc(NC(=O)c3cc(C)on3)cc2OC[C@H](C)N(CC2CC2)C[C@@H]1C	4.2	5.0	-0.8

# Structures above that contain a Cl atom, in the order listed:
cpd	canonical_smiles	DUX4 txn inh	DUX4 txn inh control	DUX4 txn inh difference
28	C[C@@H]1CCCCO[C@H](CN(C)Cc2ccncc2)[C@H](C)CN([C@@H](C)CO)C(=O)c2cc(NS(=O)(=O)c3ccc(Cl)cc3)ccc2O1	1.3	2.1	-0.8
34	O=C(C[C@H]1CC[C@@H]2[C@H](COC[C@H](O)CN2C(=O)Nc2ccc(Cl)c(Cl)c2)O1)NCc1ccc(Cl)c(Cl)c1	?	.	.
41	CN1C(=O)c2cc(NC(=O)c3ccc(Cl)cc3)ccc2OC[C@H]2O[C@@H](CC(=O)NCc3cccc(F)c3)CC[C@H]21	0.7	1.4	-0.7
45	C[C@@H]1CCCCO[C@H](CN(C)C(=O)Nc2ccc(C(F)(F)F)cc2)[C@@H](C)CN([C@@H](C)CO)C(=O)c2cc(NS(=O)(=O)c3ccc(Cl)cc3)ccc2O1	-2.1	7.6	-9.6

# Later entries
cpd	canonical_smiles	DUX4 txn inh	DUX4 txn inh control	DUX4 txn inh difference
61	C[C@@H]1CN([C@H](C)CO)C(=O)c2cc(N(C)C)ccc2O[C@@H](C)CCCCO[C@H]1CN(C)C(=O)NC1CCCCC1	2.1	6.7	-4.6
62	COc1ccc2c3c([nH]c2c1)[C@@H](CO)N(Cc1ccccc1Cl)CC31CN(C(C)=O)C1	?	.	.
63	C[C@@H]1CN([C@@H](C)CO)C(=O)CCCn2cc(nn2)CO[C@@H]1CN(C)S(=O)(=O)c1cn(C)cn1	6.9	-1.5	8.5
64	O=C(C[C@@H]1C[C@@H]2c3cc(NC(=O)C4CCC4)ccc3O[C@@H]2[C@@H](CO)O1)NCC1CC1	8.2	7.1	1.1
65	CN1C(=O)c2cc(NC(=O)c3cccs3)ccc2OC[C@@H]2O[C@H](CC(=O)NCC3CC3)CC[C@H]21	-4.3	-1.1	-3.2
66	COc1ccc2c3c(n(C)c2c1)[C@H](CO)N(C(=O)c1ccc(F)cc1)CC31CN(C(C)=O)C1	23.3	13.1	10.2
67	CO[C@H]1CN(C)C(=O)c2cc(NC(=O)c3ccc4c(c3)OCO4)ccc2OC[C@@H](C)NC[C@H]1C	-0.1	2.2	-2.3
68	CC(C)c1cn(CC[C@@H]2CC[C@@H](NC(=O)Nc3cc(Cl)cc(Cl)c3)[C@@H](CO)O2)nn1	0.8	-3.6	4.4
69	CN(C)C(=O)c1cccc(-c2ccc(C3[C@H]4CNC[C@@H]3N4C(=O)Nc3cccc(Cl)c3)cc2)c1 (some centres not stated)	19.3&10.0	-0.3&-1.9	19.6&11.9
70	C[C@@H](NC(=O)C[C@H]1C[C@@H]2c3cc(NC(=O)Nc4ccccc4F)ccc3O[C@@H]2[C@@H](CO)O1)c1ccccc1	?	.	.
71	CCCNC(=O)N1C[C@@H](C)[C@H](OC)CN(C)C(=O)c2cc(NS(C)(=O)=O)ccc2OC[C@@H]1C	2.2	2.6	-0.4
72	COc1ccc(CN2C[C@H](O)COC[C@@H]3O[C@@H](CC(=O)NCCN4CCCC4)CC[C@H]32)cc1	7.4	-0.2	7.7
73	COc1cccc(CN2[C@H](CO)[C@@H]3c4ccccc4N(C(=O)c4ccncc4)C[C@@H]32)c1	-3.2	4.1	-7.3
74	CCC(=O)N1[C@H](CO)[C@H](c2ccccc2)[C@@H]1CN(CC)C(=O)c1ccccc1	-0.1	-0.1	0.0
75	C[C@H](NC(=O)[C@@H]1[C@@H](CO)[C@@H]2Cn3c(cccc3=O)[C@@H]2N1CC1CC1)c1ccccc1	-5.9	15.5	-21.3
76	CCS(=O)(=O)N1[C@@H](CO)[C@@H](c2ccccc2)C12CN(C(=O)C1CCCCC1)C2	-3.7	-0.2	-3.6
77	CCC(=O)N1CC(=O)N2[C@H](CO)[C@H](c3ccc(C#CCC(C)C)cc3)[C@H]2C1	0.3	0.3	0.0
78	COc1cccc(-c2ccc([C@H]3[C@H](C#N)N(C(=O)c4ccccn4)[C@H]3CO)cc2)c1	1.1	-1.1	2.2
